Screens deposited in PubChem by Center for Chemical Genomics, University of Michigan.
CDC25B-CDK2 inh – human CDC25B-CDK2/CyclinA binding inhibition. HTRF CDC25B-CDK2/CyclinA binding, anti-His/anti-Flag; hits give high values. 94,000 compounds, 0.72% hits. z-score (no concentration beside the values);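 also: score is relative to mean and SD of negative controls; strong numbers were not always called active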
TAR Tat displ – HIV-1 TAR-Tat binding disruption; HIV-1 TAR RNA, Tat peptide displacement FRET; hits give high values; z-score (no concentration beside the values); 100,000 compounds, 0.6% hits; AID 1259389;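 also: score is relative to mean and SD of negative controls; some compounds called inactive have numbers as strong as hits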
Active calls of the source: *; . = not tested or not shown.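 The calls were made as follows: active = z-score from 3 up in half or more of its runs; inactive = the rest.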 The order is random; about 0.94% have a hit in one of these screens.

SMILES,TAR Tat displ,CDC25B-CDK2 inh
O=C(Nc1ccc(Cl)cc1)c1cnn(-c2ccc(F)cc2)c1-n1cccc1,0.26,.
CCCCOc1ccc(C2c3c(oc4ccccc4c3=O)C(=O)N2c2nnc(C)s2)cc1 (configuration not stated),1.2,-1.2
CC1=C(c2ccc(C)c(C)c2)S(=O)(=O)N=C1Nc1ccc(Br)cc1F,0.27,-3
COC(=O)c1cscc1NC(=O)c1nccnc1C(=O)O,.,-1.1
O=C(Nc1nnc(SCc2cc(=O)n3ccsc3n2)s1)c1ccccc1Cl,0.99,.
COc1cc(C2C(C(=O)OC(C)C)=C(C)NC3=C2C(=O)CC(c2ccccc2)C3)cc(Cl)c1O (configuration not stated),1.1,-0.5
COC(=O)c1ccc([N+](=O)[O-])o1,.,0.87
COc1ccc(-n2c(C)ccc2C)cn1,.,2

3 structures from above, sorted by heavy-atom count, descending:
SMILES,TAR Tat displ,CDC25B-CDK2 inh
COc1cc(C2C(C(=O)OC(C)C)=C(C)NC3=C2C(=O)CC(c2ccccc2)C3)cc(Cl)c1O (configuration not stated),1.1,-0.5
CC1=C(c2ccc(C)c(C)c2)S(=O)(=O)N=C1Nc1ccc(Br)cc1F,0.27,-3
COc1ccc(-n2c(C)ccc2C)cn1,.,2

(more compounds)
SMILES,TAR Tat displ,CDC25B-CDK2 inh
Cc1ccc2nc3c(cc2c1)CCN3S(=O)(=O)c1ccc(Cl)cc1,1.9,-1.9
O=C1COc2cc(S(=O)(=O)CCC(=O)NC3CCCC3)c(Cl)cc2N1,2.4,.
COc1cc(OC)c(N(C)C(=O)c2noc3c2COc2ccccc2-3)cc1Cl,-0.29,-1.6
CCOC(=O)c1sc2nc(C)nc(Oc3cccc(Cl)c3)c2c1C,1.1,.
Cc1sc2ncnc(SCC(=O)NCc3ccco3)c2c1C,-0.02,-0.63
O=c1c2cc3c(cc2nc(SCc2cccc(F)c2)n1Cc1ccco1)OCO3,1.3,.
COc1ccc(Cc2nc(-c3ccc(OC)cc3)no2)cc1,-0.59,-0.46
CCOC(=O)c1sc(NC(=O)C2COc3ccccc3O2)c(C(=O)OCC)c1C (configuration not stated),-1.6,1.2
N#Cc1c(OCC(F)(F)F)cccc1OCC(F)(F)F,.,-0.71
Cc1ccc(-c2csc3ncn(CC4CCCO4)c(=O)c23)cc1 (configuration not stated),0.32,-1.2
NC(=O)c1cc[n+](CC2=C(C(=O)O)N3C(=O)C(NC(=O)C(c4ccccc4)S(=O)(=O)[O-])C3SC2)cc1 (configuration not stated),0.35,.
O=c1ccc2cc(S(=O)(=O)NCc3cccs3)ccc2[nH]1,1.4,.
Cc1nnc(N2C(=O)C(O)=C(C(=O)c3cccs3)C2c2cccc(Oc3ccccc3)c2)s1 (configuration not stated),1.5,-2.2
CCS(=O)(=O)c1ccc(O)c(N2C(=O)c3cccc4cccc(c34)C2=O)c1,.,-0.46
CC1CN(c2ccc(Cl)cc2)c2nc3c(c(=O)n(CC(=O)O)c(=O)n3C)n2C1 (configuration not stated),1.2,-1.4
O=C(O)c1ccc(S(=O)(=O)c2ccc3c(c2)C(=O)N(c2ccccc2O)C3=O)cc1,.,-1
CCCCC(CC)CNS(=O)(=O)c1ccc2c(c1)CCN2C(C)=O (configuration not stated),0.05,-2.5
c1ccc2c(c1)OCC(CNCC1COc3ccccc3O1)O2 (configuration not stated),.,0.15
O=C(CCc1nnc2ccc(N3CCOCC3)nn12)N1CCOCC1,-0.59,.
Cc1ccc(N2CSC3=C(C#N)C(c4ccccc4)CC(=O)N3C2)cc1Cl (configuration not stated),-5.7,5.6*
CC(CC1CC(C)(C)OC1=O)C(=O)Nc1nncs1 (configuration not stated),.,-0.55
Cn1c(SCc2cc(=O)n3nc(-c4ccco4)sc3n2)nc2sc3c(c2c1=O)CCCC3,2.3,-1.9
CCOC(=O)Cn1c(=O)c2ccccc2n2ccnc12,-0.63,-0.1
COCCn1c(SCC(=O)N2CCc3ccccc32)nc2c(c1=O)SC(C)C2 (configuration not stated),.,-2.3
c1ccc(-c2cc3ncnc(N4CCSCC4)c3s2)cc1,.,-2.2
O=C(CN1C(=O)CCc2cc(S(=O)(=O)N3CCCCC3)ccc21)NC1CCCCC1,0,.
O=C(Nc1ccc2nc(SCC(=O)N3CCOCC3)sc2c1)c1ccco1,-0.37,2.5
CCSc1nc2c(c(=O)[nH]1)C(c1ccc(C)cc1C)CC(=O)N2 (configuration not stated),2.9,-2.4
CCn1ncc(C2=NOC(C(=O)NCc3ccccn3)C2)c1C (configuration not stated),2.3,-1.7
N#Cc1sccc1CS(=O)(=O)c1ccc(Cl)cc1,.,-1.4
CCOC(=O)C(C(=O)OCC)C1CCS(=O)(=O)C1 (configuration not stated),0.02,0.41
Cc1ccc(CN(C(=O)c2cc(-c3ccc(C)c(F)c3)on2)C2CCS(=O)(=O)C2)o1 (configuration not stated),0.44,0.2
CCCC12CN(C(=O)CC(C)C)CC(CCC)(CN(C(=O)CC(C)C)C1)C2=O,-0.3,0.96
O=C1c2cccnc2C(Nc2cc(F)ccc2F)N1Cc1cccs1 (configuration not stated),2.6,-1.2
CCc1cc2c(Nc3cc(OC)cc(OC)c3)ncnc2s1,1.4,.
COc1ccc(OCCn2c(CN3CCCCC3)nc3ccccc32)cc1,-0.36,-0.59
c1ccc(-c2cc3nccc(-c4cccs4)n3n2)cc1,.,-0.75
CC1CCN(c2cc(N3CCN(C(=O)c4ccco4)CC3)c3c4c(onc24)-c2ccccc2C3=O)CC1,-0.03,-1.5
CCSCC1COC(c2cccn2Cc2c(C)cc(C)cc2C)=N1 (configuration not stated),0.49,-3.3
CN(C)CCCN1C(=O)C(O)=C(C(=O)c2cc3ccccc3o2)C1c1ccccc1 (configuration not stated),3,1.8
Nc1nc2ccccc2c(=O)[nH]1,.,-0.38
Cn1cc(C(=O)NC2CCCCC2)c(=O)c2cc(S(=O)(=O)N3CCCC3)ccc21,.,-0.3
COc1ccc(C(=O)COC(=O)C2C3CCC(C3)C2C(=O)c2ccccc2)cc1 (configuration not stated),0.39,-0.62
Cc1cc(NC(=O)C2c3ccccc3Oc3ccccc32)n(-c2nc(C)c(C)c(=O)[nH]2)n1,-1.1,.
CC(C)CCNS(=O)(=O)c1csc(C(N)=O)c1,1.9,.
O=C(NCc1csc(-c2cccs2)n1)[C@H]1CSCN1S(=O)(=O)c1ccccc1,0.75,.
Fc1ccc(CNc2c(-c3ccc(F)c(F)c3)nc3ncccn23)cc1,-0.1,.
O=C(Cn1nc(Cc2ccncc2)c2ccccc2c1=O)N1CCCC1,0.87,-0.66

Quoted at random: six records from the list
SMILES,TAR Tat displ,CDC25B-CDK2 inh
COc1ccc(C(=O)COC(=O)C2C3CCC(C3)C2C(=O)c2ccccc2)cc1 (configuration not stated),0.39,-0.62
Cn1cc(C(=O)NC2CCCCC2)c(=O)c2cc(S(=O)(=O)N3CCCC3)ccc21,.,-0.3
CC(C)CCNS(=O)(=O)c1csc(C(N)=O)c1,1.9,.
O=C(Cn1nc(Cc2ccncc2)c2ccccc2c1=O)N1CCCC1,0.87,-0.66
Cc1cc(NC(=O)C2c3ccccc3Oc3ccccc32)n(-c2nc(C)c(C)c(=O)[nH]2)n1,-1.1,.
Nc1nc2ccccc2c(=O)[nH]1,.,-0.38

(continued)
SMILES,TAR Tat displ,CDC25B-CDK2 inh
CCCCc1ccc(NC(=O)NC2CCN(c3nccc(C(F)(F)F)n3)CC2)c(C)c1,.,-0.13
CCc1ccc(N2CSC3=C(C#N)C(c4cccs4)CC(=O)N3C2)cc1 (configuration not stated),-1.8,6.2*
CC(C)n1c(C2CC(=O)N(Cc3ccccc3)C2)nc2ccccc21 (configuration not stated),2,-0.83
CCc1nnc(SC(CC)C(=O)Nc2ccc(C)cc2)c2cc3occc3n12 (configuration not stated),2.4,.
CCOC(=O)c1noc2ncnc(Nc3cccc(SC)c3)c12,0.6,.
COc1ccc2cc3cc(C(=O)Nc4ccc5c(c4)OCCO5)oc3nc2c1,.,-0.74
CN(C)CCNC(=O)c1ccc2c(c1)N(Cc1ccc(F)cc1)CCS2,-0.55,-2.1
CN1CCN(CCCNC(=O)C2CCN(c3nnc(-n4cccc4)s3)CC2)CC1,-1.3,-0.07
CCOC(=O)C1CCN(c2c(N3CCC(C(=O)OCC)CC3)c(=O)c2=O)CC1,0.8,-0.88
Cc1nn(C)cc1CN(C)C(=O)c1cc2n(n1)C(C(F)(F)F)CC(c1ccc3c(c1)OCO3)N2 (configuration not stated),-0.56,0.4
CC1=NN(c2ccccc2)C(=O)C1N=Nc1ccc([N+](=O)[O-])cc1 (configuration not stated),.,0.07
CCOc1ccc(S(=O)(=O)Nc2cc(C)ccn2)c(C)c1C,0.34,-1.2
CSc1ncc(Cl)c(C(=O)Nc2ccc(S(=O)(=O)N3CC(C)OC(C)C3)cc2)n1 (configuration not stated),2.7,0.35
Cc1cc(Br)cc2c1N(CCOc1ccccc1)C(=O)C2=O,1.5,-1.9
CC(C)NC(=O)c1ccc2c(c1)CCN2S(C)(=O)=O,1.5,-0.84
Cn1c(=O)c2c(nc(N=Nc3c(O)[nH]c4cc(Br)ccc34)n2C)n(C)c1=O,.,-0.42
CN1CCN(C2=C(C(=O)Nc3ccccc3)S(=O)(=O)c3ccccc32)CC1,1.7,.
CC(C)CN1C(=O)C(=O)/C(=C(\O)c2ccc(Cl)cc2)C1c1ccccn1 (configuration not stated),-0.19,-0.72
CCC(=O)OCc1cnc(C)c2oc(=O)c(-c3nc(-c4ccc(OC)cc4)no3)cc12,-6.5,-1.2
Oc1ccccc1C1=NC(c2cccs2)NC(c2ccc(F)cc2)C1 (configuration not stated),2,-0.88
O=C1CSC(c2ccc3c(c2)OCO3)N1c1ccc(F)cc1 (configuration not stated),.,-0.25
COC(=O)c1cc(S(=O)(=O)N(Cc2ccccn2)C2CCN(C)CC2)c[nH]1,1.3,.
Cc1ccc(S(=O)(=O)c2nnn3c2nc(NCc2ccc4c(c2)OCO4)c2sccc23)cc1,-0.48,.
O=C(NCCN1CCNC1=O)Nc1ccc(OC(F)(F)F)cc1,.,-1.2
CCOc1ccc(-n2cc(-c3ccccc3)c3c(NC4CCCC4)ncnc32)cc1,.,-2.7
C=Cc1ccc(COC(=O)c2cn(CC)c3nc(C)ccc3c2=O)cc1,0.67,.
NC(=O)c1c(NC(=O)c2cc(-c3ccc4c(c3)OCCO4)on2)sc2c1CCCC2,0.44,-1.7
O=C(c1cc(-c2ccco2)[nH]n1)N1CCN(c2ccccc2)CC1,-0.85,.
CCOC(=O)c1oc2ccc(S(=O)(=O)N3CCC(c4ccncc4)CC3)cc2c1C,1.4,.
CSc1ccc(-c2noc(C3CCCN(S(=O)(=O)c4ccc(C(C)C)cc4)C3)n2)cc1 (configuration not stated),2.2,.
CC(C)Cn1cc(NC(=O)N2CCN(c3ccccc3F)CC2)c2ccccc2c1=O,0.65,.
CC1=C(CC(=O)O)c2cc(F)ccc2/C1=C\c1ccc(S(C)=O)cc1 (configuration not stated),0.78,-1.6
Cc1cc(F)ccc1NS(=O)(=O)c1cn(C)c(C)n1,2.2,.
CCOc1ccccc1-c1noc(CSc2nnc(-c3ccncc3)n2-c2ccc(C)cc2)n1,-0.72,-1.1
O=C(CN1c2ccccc2S(=O)(=O)c2ccccc21)NCc1ccco1,1.7,.
Oc1ccc(CCc2n[nH]c(=S)n2-c2ccc(F)cc2)cc1,.,-2.6
CCc1nnc(NC(=O)c2cc3c(Cl)nc4ccccc4c3s2)s1,.,-0.42
COc1ccc(NC(=S)NCc2cccnc2)cc1,.,-0.72
CCS(=O)(=O)c1nc(S(=O)(=O)c2ccc(C)cc2)c(N2CCN(CCO)CC2)s1,-1.2,-0.55
Cc1nc2nc(NCc3cccs3)[nH]n2c(=O)c1CCC(=O)Nc1ccc(Br)cc1,-1.1,-0.55
CCCNC(=O)C1=C(C)C(=O)OC12CCN(S(C)(=O)=O)CC2,-0.36,.
COCCn1cnc2sc(C(=O)N3CCC(C)CC3)c(C)c2c1=O,1.3,.
Cc1cc(O)c(C)c(O)c1C(=O)O,-0.97,.
Cn1cc(S(=O)(=O)NC2CCCC2)cc1C(=O)NC1CCCC1,1.1,.
O=c1[nH]nc(-c2ccccc2)c2c1Nc1nnnn1C2c1cccc(F)c1 (configuration not stated),0.5,-0.86
CCN(CC)CCNC(=O)C1CCN(c2nnc(N3CCCC3=O)s2)CC1,-0.53,-0.71
COc1ccc(CN2C(=O)CN(C3CCCCCC3)C(=O)C2c2ccc(F)cc2)cc1 (configuration not stated),.,-0.06
CC1(C(=O)NC2CCCCC2)Cn2c(ccc2-c2ccco2)C(=O)N1Cc1cccs1 (configuration not stated),-2.5,.
Cc1ccc(S(=O)(=O)NCC(c2ccco2)N2CCOCC2)cc1 (configuration not stated),1.4,.
Cc1cc(S(=O)(=O)NNc2ncnc3cc(C(C)(C)C)sc23)c(C)cc1Cl,.,-1.1
COc1ccc(S(=O)(=O)n2nc(-c3ccc(Br)cc3)cc2N)cc1OC,-1.2,-0.36
Cc1ccc(-c2nnc(SCc3ccccc3C)o2)cc1,-0.88,-0.96
CCOc1cc(C2c3c(oc4ccc(F)cc4c3=O)C(=O)N2Cc2ccc(C)cc2)ccc1O (configuration not stated),-2.1,-0.09
CC1=C(C(=O)OCC2CCCCC2)C(c2cc3c(cc2Br)OCO3)CC(=O)N1 (configuration not stated),1.9,-0.77
